Compound activity from PubChem BioAssay.
p53 nuclei = nuclear p53 accumulation, HPV+ cells – imaging, p53-positive nuclei imaging, 24 h, 48 h (AID 1508601) | p53-positive nuclei imaging, 48 h; stronger effect = higher value; some inactives read as strong as hits | p53-positive nuclei, normalised, % at 11 µM unless noted | 1% of 5,700 active;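 active means mean of two plates above 50% at 24 h or at 48 h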;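 further: HPV-positive HeLa cells with a fluorescent p53 stability reporter; 0% = vehicle and 100% = proteasome inhibitor control; doses worked out from stocks diluted about 900-fold with the highest of each compound shown; many of its hits are not listed in these tables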
p53 nuclei cells 24 h = further read-out of p53 nuclei, marked with its call; nuclei count, normalised, %; measured here: cell number at 24 h;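 100% = vehicle wells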
p53 nuclei p53 24 h = recorded beside p53 nuclei, whose call it bears; p53-positive nuclei, normalised, %; measured here: p53 positive nuclei at 24 h;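 0% = vehicle and 100% = positive control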
p53 nuclei cells 48 h = recorded beside p53 nuclei, whose call it bears; nuclei count, normalised, %; measured here: cell number at 48 h;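 100% = vehicle wells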
* marks the source's active call; other numbers are inactive results; [ ] = another dose, or the depositor's remark. An excerpt; count on the stated rates, not on these rows.

SMILES	p53 nuclei	p53 nuclei cells 24 h	p53 nuclei p53 24 h	p53 nuclei cells 48 h
CCCCOc1cc(C(=O)NCCN(CC)CC)c2ccccc2n1	0.1[3.7 µM]	110	0.1	110
O=C1c2ccccc2C(=O)c2c1ccc(O)c2O	-0.1[3.7 µM]	93	-0.5	97
COc1cc2nc(N3CCCN(C)CC3)nc(NC3CCN(Cc4ccccc4)CC3)c2cc1OC	-0.4	80	0.1	72
COc1cc(Nc2nc3ccccc3nc2NS(=O)(=O)c2ccc(NC(=O)c3ccc(C)c(OC)c3)cc2)cc(OC)c1	0.4	84	-0.1	80
COc1ccc2c(c1)C(=O)N(CCc1ccc(S(=O)(=O)NC(=O)NC3CCCCC3)cc1)C(=O)C2(C)C	-0.2[3.7 µM]	110	-0.3	103
O=C(Oc1coc(CSc2ncccn2)cc1=O)c1ccc([N+](=O)[O-])cc1	0.0	120	0.0	116
O=C1CCC[C@@H]2[C@@H]3CCC[N+]4([O-])CCC[C@H](CN12)[C@@H]34 (stereo partly specified)	-0.2[3.7 µM]	108	-0.3	106
Cn1cc(C=CC(=O)c2cccc(F)c2)cc1C=CC(=O)NO	-0.7	118	-0.2	111
CN(C)c1cc(NC(=O)CNC(C)(C)C)c(O)c2c1C[C@H]1C[C@H]3C(N(C)C)C(=O)C(C(N)=O)=C(O)[C@@]3(O)C(=O)C1=C2O (stereo partly specified)	-0.6[3.7 µM]	114	-0.3	116
O=C(Nc1cccnc1)N1CCC(Cc2cccc(Oc3ccc(C(F)(F)F)cn3)c2)CC1	-0.1[3.7 µM]	102	-0.2	103
CCCCOc1ccc(C(=O)CCN2CCCCC2)cc1	-0.2[3.7 µM]	119	-0.5	110
CCC(C)CC(C)CCCCCCCCC(=O)NC1CC(O)C(NCCN)NC(=O)[C@@H]2C(O)CCN2C(=O)[C@@H](C(O)CCN)NC(=O)[C@H](C(O)C(O)c2ccc(O)cc2)NC(=O)[C@@H]2CC(O)CN2C(=O)[C@H](C(C)O)NC1=O (stereo partly specified)	0.2[3.7 µM]	120	-0.3	117
Cc1ccc(CNc2ncnc3ccc(-c4ccc(CO)o4)cc23)o1	-0.1	115	0.0	116
Cc1cc(C(C)Nc2ccccc2)c2nc(N3CCOCC3)cc(=O)n2c1 (stereo unspecified)	-0.2	106	0.3	99
O=C(Nc1ccccc1)N1CCN(c2nc(-c3ccccc3)ns2)CC1	-0.2[3.7 µM]	115	-0.3	108
Nc1ccc(-c2ccc3ncc4ccc(=O)n(-c5cccc(C(F)(F)F)c5)c4c3c2)cn1	33	38	2.4	18
CCN(CC)CCOC(=O)c1ccc(N)cc1Cl	4.9[3.7 µM]	120	3.0	117
O=C(C=Cc1ccc2ccccc2n1)c1ccncc1	0.5[3.7 µM]	85	1.1	89
COc1ccc(CCC(=O)Nc2nc3ccc(Cl)cc3s2)cc1OC	0.0[3.7 µM]	103	-0.2	101
Oc1ccc2ccccc2c1SSc1c(O)ccc2ccccc12	0.3[3.7 µM]	108	-0.2	108
CCc1nnc(NC(=O)CSc2nc(N)nc(SC)c2C#N)s1	0.0	96	0.0	96
O=C(Nc1ccc(-c2ccnc(Nc3ccc(N4CCOCC4)cc3)n2)cc1)C1CCCN1 (stereo unspecified)	0.0	104	-0.1	101
CNS(=O)(=O)Cc1ccc2[nH]cc(CCN(C)C)c2c1	-0.3	107	-0.1	98
COc1cc(CCC(C)=O)ccc1O	-0.3[3.7 µM]	114	-0.6	107
Nc1cc2c3ccccc3ccc2c2ccccc12	0.2	85	0.0	91
Cc1cc(=O)n(-c2ccccc2)n1C	-0.1[3.7 µM]	110	-0.3	106
O=C1NC(=O)C(=Cc2ccc3c(c2)OC(F)(F)O3)S1	-0.3[3.7 µM]	98	-0.3	100
CCC1OC(=O)C(C)C(OC2C[C@@](C)(OC)C(O)C(C)O2)C(C)C(OC2OC(C)CC(N(C)C)C2O)[C@@](C)(O)CC(C)[C@@H]2NC(COCCOC)OC(C2C)[C@]1(C)O (stereo partly specified)	-0.2[3.7 µM]	115	-0.3	110
CC1C[C@H]2[C@@H]3CCC4=CC(=O)C=C[C@]4(C)[C@@H]3C(=O)C[C@]2(C)[C@]1(O)C(=O)CO (stereo partly specified)	1.0[3.7 µM]	104	1.0	89
COc1ccc(-c2coc3cc(O)cc(O)c3c2=O)cc1	-0.2[3.7 µM]	74	-0.3	81
Cn1nc(C(C)(C)C)cc1C(=O)NC(Cc1cccc(Cl)c1)C(=O)NCC#N (stereo unspecified)	-0.3[3.7 µM]	113	-0.5	107
CCOC(=O)c1ncn2c1CN(C)C(=O)c1cc(F)ccc1-2	-0.1[3.7 µM]	103	-0.2	98
COc1ccc(CNC(=O)Nc2ncc([N+](=O)[O-])s2)cc1	0.0[3.7 µM]	104	-0.1	101
Cn1cnc(=N)c2[nH]cnc21	0.3[3.7 µM]	93	-0.3	97
COc1cc(OC)c(C(=O)CCCN2CCCC2)c(OC)c1	-0.1[3.7 µM]	101	-0.2	102
CC(N)C12CC3CC(CC(C3)C1)C2 (stereo unspecified)	-0.1[3.7 µM]	115	-0.2	114
Cc1c(Cl)cccc1Nc1ccccc1C(=O)O	0.0[3.7 µM]	114	-0.2	100
CCCCCCCCC=CCCCCCCCC(=O)NCCO	0.0	118	-0.1	120
COc1ccc(CCNC(=O)CC(c2ccccc2)c2cccc(C)c2O)cc1OC (stereo unspecified)	-0.1	103	-0.1	105
CNC(CNC(=O)N1CCCC(C(OCCNC(=O)OC)c2cccc(Cl)c2)C1)CC1CCCOC1 (stereo unspecified)	-0.1	103	-0.1	99
COc1ccc(C2CC(=O)c3c(O)cc(O)cc3O2)cc1O (stereo unspecified)	0.1[3.7 µM]	108	-0.2	105
CC(Sc1nc2ccccc2[nH]1)C(=O)NN=Cc1cc(Br)ccc1O (stereo unspecified)	-0.1	93	0.2	87
COc1cc2c(NC3CCN(C(C)C)CC3)nc(C3CCCCC3)nc2cc1OCCCN1CCCC1	11	85	0.9	75
O=C(NC1CC1)c1cccc(-c2ccc3c(NC(=O)C4CC4)n[nH]c3c2)c1	0.4	54	0.0	42
CC(=O)O[C@@]1(C(C)=O)CC[C@H]2[C@@H]3C=C(C)C4=CC(=O)CC[C@]4(C)[C@@H]3CC[C@@]21C	-0.5[3.7 µM]	108	-0.3	99
CCCCCCCCCCCCCCCC(=O)OC1C(SC)OC(C(NC(=O)C2CC(CCC)CN2C)C(C)Cl)C(O)C1O (stereo unspecified)	-0.3[3.7 µM]	94	-0.4	99
CN(C)CCOC(=O)COc1ccc(Cl)cc1	0.9[3.7 µM]	113	0.7	105
NC(=O)C1CCCc2c1[nH]c1ccc(Cl)cc21 (stereo unspecified)	-0.1	112	0.4	104
N#CCOC(=O)c1ccc(-c2cc(=O)c3ccccc3o2)cc1	0.3	100	0.1	105
CC(C)CN(CC(O)C(Cc1ccccc1)NC(=O)OC1CCOC1)S(=O)(=O)c1ccc(N)cc1 (stereo unspecified)	3.0[3.7 µM]	103	-0.2	106

Going on with the list:
SMILES	p53 nuclei	p53 nuclei cells 24 h	p53 nuclei p53 24 h	p53 nuclei cells 48 h
Cc1[nH]c2ccccc2c1CCNC(=O)c1cccs1	-0.2[3.7 µM]	115	-0.3	109
CC(C=CC(=O)NO)=CC(C)C(=O)c1ccc(N(C)C)cc1 (stereo unspecified)	89*[3.7 µM]	35*	75*	21*
COCC(NC(=O)c1cnc(C)s1)C(=O)NC(COC)C(=O)NC(Cc1ccccc1)C(=O)C1(C)CO1 (stereo unspecified)	96*[3.7 µM]	50*	116*	41*
COc1c(C)cnc(Cn2cnc3c(Cl)nc(N)nc32)c1C	-0.3[3.7 µM]	55	0.1	46
CN1CCN(S(=O)(=O)c2ccc(-c3cnc(N)c(C(=O)Nc4cccnc4)n3)cc2)CC1	2.5[3.7 µM]	97	0.1	57
O=C1CCC(C(=O)N2CSCC2C(=O)O)N1 (stereo unspecified)	-0.2[3.7 µM]	121	-0.2	110
CC(=NNC(=O)c1cccc(S(=O)(=O)N2CCOCC2)c1)c1cc(Cl)ccc1O	-0.2	73	-0.2	61
CCCCNc1cc(C(=O)O)cc(S(N)(=O)=O)c1Oc1ccccc1	-0.1	103	0.0	102
CC(C)c1ccccc1S(=O)(=O)c1cc(N)c2ncccc2c1[N+](=O)[O-]	0.1	103	-0.1	105
O=C(O)CSCC(=O)NC1CCSC1=O (stereo unspecified)	0.0[3.7 µM]	114	-0.2	110
CC(=O)c1ccc2c(c1)c1cc(C(C)=O)ccc1n2CCNC(C)C	0.1	25	0.7	15
CCOC(=O)C1=C(N)Oc2cc(O)ccc2C1c1cccnc1 (stereo unspecified)	0.1	107	-0.1	105
O=C(C=Cc1ccc(O)cc1)c1ccc(O)cc1O	0.0[3.7 µM]	107	-0.2	106
Nc1nc(N)c2nc(-c3ccccc3)c(N)nc2n1	-0.2[3.7 µM]	110	-0.3	105
O=c1cc(-c2ccccc2)oc2cc(O)c(O)c(O)c12	0.0[3.7 µM]	95	-0.1	91
OCC1OC(n2cnc3c(NC4CCCC4O)ncnc32)C(O)C1O (stereo unspecified)	0.0	87	0.1	92
CC(=O)Oc1ccccc1C(=O)O	-0.1	103	0.0	109
O=C1c2c(O)cc(O)cc2OC(c2cc(O)c(O)c(O)c2)C1O (stereo unspecified)	-0.2[3.7 µM]	101	-0.2	103
CC1=C(CC(=O)O)c2cc(F)ccc2C1=Cc1ccc(S(C)=O)cc1 (stereo unspecified)	-0.1	118	-0.2	107
NC(=O)Cc1cccc(C(=O)c2ccccc2)c1N	-0.6[3.7 µM]	101	-0.1	99

19 successive entries out of the list so far, for reference:
SMILES	p53 nuclei	p53 nuclei cells 24 h	p53 nuclei p53 24 h	p53 nuclei cells 48 h
Cc1ccc(CNc2ncnc3ccc(-c4ccc(CO)o4)cc23)o1	-0.1	115	0.0	116
Cc1cc(C(C)Nc2ccccc2)c2nc(N3CCOCC3)cc(=O)n2c1 (stereo unspecified)	-0.2	106	0.3	99
O=C(Nc1ccccc1)N1CCN(c2nc(-c3ccccc3)ns2)CC1	-0.2[3.7 µM]	115	-0.3	108
Nc1ccc(-c2ccc3ncc4ccc(=O)n(-c5cccc(C(F)(F)F)c5)c4c3c2)cn1	33	38	2.4	18
CCN(CC)CCOC(=O)c1ccc(N)cc1Cl	4.9[3.7 µM]	120	3.0	117
O=C(C=Cc1ccc2ccccc2n1)c1ccncc1	0.5[3.7 µM]	85	1.1	89
COc1ccc(CCC(=O)Nc2nc3ccc(Cl)cc3s2)cc1OC	0.0[3.7 µM]	103	-0.2	101
Oc1ccc2ccccc2c1SSc1c(O)ccc2ccccc12	0.3[3.7 µM]	108	-0.2	108
CCc1nnc(NC(=O)CSc2nc(N)nc(SC)c2C#N)s1	0.0	96	0.0	96
O=C(Nc1ccc(-c2ccnc(Nc3ccc(N4CCOCC4)cc3)n2)cc1)C1CCCN1 (stereo unspecified)	0.0	104	-0.1	101
CNS(=O)(=O)Cc1ccc2[nH]cc(CCN(C)C)c2c1	-0.3	107	-0.1	98
COc1cc(CCC(C)=O)ccc1O	-0.3[3.7 µM]	114	-0.6	107
Nc1cc2c3ccccc3ccc2c2ccccc12	0.2	85	0.0	91
Cc1cc(=O)n(-c2ccccc2)n1C	-0.1[3.7 µM]	110	-0.3	106
O=C1NC(=O)C(=Cc2ccc3c(c2)OC(F)(F)O3)S1	-0.3[3.7 µM]	98	-0.3	100
CCC1OC(=O)C(C)C(OC2C[C@@](C)(OC)C(O)C(C)O2)C(C)C(OC2OC(C)CC(N(C)C)C2O)[C@@](C)(O)CC(C)[C@@H]2NC(COCCOC)OC(C2C)[C@]1(C)O (stereo partly specified)	-0.2[3.7 µM]	115	-0.3	110
CC1C[C@H]2[C@@H]3CCC4=CC(=O)C=C[C@]4(C)[C@@H]3C(=O)C[C@]2(C)[C@]1(O)C(=O)CO (stereo partly specified)	1.0[3.7 µM]	104	1.0	89
COc1ccc(-c2coc3cc(O)cc(O)c3c2=O)cc1	-0.2[3.7 µM]	74	-0.3	81
Cn1nc(C(C)(C)C)cc1C(=O)NC(Cc1cccc(Cl)c1)C(=O)NCC#N (stereo unspecified)	-0.3[3.7 µM]	113	-0.5	107

(cont.)
SMILES	p53 nuclei	p53 nuclei cells 24 h	p53 nuclei p53 24 h	p53 nuclei cells 48 h
C#C[C@]1(O)CC[C@@H]2[C@@H]3CCc4cc(O)ccc4[C@@H]3CC[C@@]21C	76	73	6.0	31
COc1cc(O)c2c(c1)C(=O)c1cc(C)cc(O)c1C2=O	-0.1	104	-0.1	95
COc1cc(C)c(C=CC(C)=CC=CC(C)=CC(=O)O)c(C)c1C	-0.1	106	-0.2	99
CC1OC(OC2C(Oc3cc(O)c4c(c3)OC(c3ccc(O)cc3)CC4=O)OC(CO)C(O)C2O)C(O)C(O)C1O (stereo unspecified)	0.0[3.7 µM]	115	-0.5	112
CN(C)CC(c1ccc(O)cc1)C1(O)CCCCC1 (stereo unspecified)	0.1	100	-0.1	106
